Rango-impB inh – inhibitors of Rango-importin beta complex formation; Rango CFP/YFP FRET sensor + importin beta, 45 min; 0.031% of 340,000 active; Potency, µM (titrated, usually from 92.2 µM), inactives show at the top dose inhibition of complex formation; active = rising FRET ratio curve, often small or poorly fitted; inconclusive = mostly compound fluorescence or quenching in the first reads; inactive = flat curves in all reads;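 note: potency is the fitted concentration of half-maximal effect; 0% = DMSO wells and 100% = buffer wells lacking importin beta; nearly all actives have a fitted effect of over 15% in size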
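Inhibition scored from the CFP 486 nm/YFP 530 nm FRET ratio 45 min after adding 0.125 microM importin beta to 50 nM Rango biosensor preincubated 5 min with compound (room temperature, PBS with DTT, Tween-20, BSA). No-importin wells as positive control.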
Rango dissoc inh – inhibition of RanGTP-driven Rango-importin beta dissociation; O95149+P62826; Potency, µM (highest dose often 46.1 µM), without a hit: at the highest dose activity change, negative = inhibition; Biochemical FRET Rango-importin beta, RanGTP-induced dissociation; 0.071% of 340,000 active; active means falling FRET ratio curve, often poorly fitted, with flat reads before Ran was added; inconclusive means other falling curves, or compound fluorescence or quenching; inactive means flat or rising ratio curve;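 note: potency is the fitted concentration of half-maximal effect; % of control where 0% means no effect; nearly all actives have a fitted effect of over 45% in size; -100% = wells without RanGTP and RCC1; the record marks most hits as doubtful in a second field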
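Rango FRET biosensor (snurportin-1 IBB flanked by N-terminal EYFP and C-terminal CFP10) at 0.1 uM, with 0.25 uM importin beta in PBS, 1mM DTT, 0.02% Tween-20, 0.1% BSA. 0.6 uM Ran, 2mM GTP and 0.2 uM RCC1 were then added for 45 min at room temperature. Inhibition read as loss of FRET rise.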
GLA inh pH 4.5 – blocks human alpha-galactosidase A at pH 4.5 | P06280 | purified enzyme, 4-MU-alpha-Gal fluorescence, pH 4.5 | activity change, negative = inhibition, % at 105 µM | 230,000 tested, under 10 active | AID 1467; inconclusive = small, poorly fitted or top-dose-only inhibition, or a rising curve; inactive = flat fitted curve, though single readings scatter; no compound was filed as active;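 note: 0% = full activity with enzyme and -100% = basal without enzyme; dose as in the result columns while the protocol names 77 µM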
Target sequence (P06280 whole entry, looked up): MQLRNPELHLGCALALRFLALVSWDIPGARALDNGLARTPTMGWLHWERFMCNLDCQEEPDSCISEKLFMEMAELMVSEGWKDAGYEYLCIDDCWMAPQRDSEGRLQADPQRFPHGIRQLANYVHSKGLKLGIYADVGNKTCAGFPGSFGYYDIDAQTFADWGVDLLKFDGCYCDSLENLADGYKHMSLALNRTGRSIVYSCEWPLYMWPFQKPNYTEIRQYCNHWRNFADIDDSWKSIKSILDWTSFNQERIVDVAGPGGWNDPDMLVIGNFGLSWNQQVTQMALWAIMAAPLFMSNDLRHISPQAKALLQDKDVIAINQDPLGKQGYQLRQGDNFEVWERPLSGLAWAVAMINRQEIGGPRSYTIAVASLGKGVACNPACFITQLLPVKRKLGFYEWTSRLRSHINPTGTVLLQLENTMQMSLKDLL
miR-21 FLuc – miR-21 reporter, rising signal; HeLa miR-21 FLuc reporter, luciferase, 48 h; Potency, µM (highest dose often 38.3 µM), for inactives: at the top dose reporter change, positive = more light; 340,000 tested, under 10 active; AID 2288; active = well fitted rising curve with a large enough effect; inconclusive = small, poorly fitted or top-dose-only effect; inactive = no such curve, though single readings can be large or run the other way;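 note: % of control where 0% means no effect; miR-21 action dims this reporter so a rising signal means less miR-21 action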
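Compounds were titrated across several concentrations (up to approximately 40 uM) and incubated 48 hours with HeLa miR-21-FLuc reporter cells (miR-21 target sequence downstream of FLuc, endogenous miR-21). Readout was firefly luciferase luminescence after lytic detection reagent.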
* = called active by the depositor; ? = inconclusive; / = no result given; [ ] = dose if it differs, or a comment. The list is partial. The share of hits here may be higher or lower than overall.

Second line of a record: Rango-impB inh	Rango dissoc inh	GLA inh pH 4.5	miR-21 FLuc
C/C(=N\N1CCCCC1)c1c(O)[nH]c(=O)[nH]c1=O
 : -0.2%	-3.8%	-3.3	-42.4%
CCOc1ccc(-c2cc(C)[n+](CCN3CCOCC3)c(-c3ccc(OCC)cc3)c2)cc1
 : -1.8%	-0.3%	-1.7	?
Cc1ccccc1-n1c(C)cc(/C=C2/C(=O)NC(=O)N(Cc3ccco3)C2=O)c1C
 : ?	?	6.2	-10.0%
CC12CN3CC(C)(CN(C1)C31CCOCC1)C2=O
 : 3.6%	10.4%	-3.2	-0.9%
CCn1cc(C(=O)c2ccccc2)c2ccccc21
 : 0.4%	-9.3%	-5.3	-12.1%
CCn1c(P(C)(=O)O)nc2cc(NC(=O)c3ccccc3F)ccc21
 : -2.1%	-13.0%	-8.7	-2.4%
O=C(Nc1ccc2nc(-c3cccs3)c(-c3cccs3)nc2c1)NC1CC1
 : ?	?	0.4	4.6%
C/C=C/CC#N
 : 2.3%	-8.5%	/	/
Cc1nc2ccc(Cl)cn2c1P(=S)(N1CCOCC1)N1CCOCC1
 : -2.7%	19.0%	-19.4	-0.2%
CCCC(C)C1(CC)C(=O)NC(=O)N=C1N (configuration not stated)
 : -2.0%	0.8%	-2.2	-10.2%
Cc1cccc(NC(=O)COC(=O)c2cc(C)n(C3CC3)c2C)c1
 : 1.5%	0.6%	/	/
Cc1[nH]n(-c2ccccc2)c(=O)c1C(C[N+](=O)[O-])c1ccccc1Cl (configuration not stated)
 : -4.5%	22.4%	3.2	1.1%
C[C@]12CC[C@@H]3c4ccc(O)c(O)c4CC[C@H]3[C@@H]1CC[C@@H]2O
 : -0.1%	0.6%	-22.5	11.1%
C[C@]12CCC3C(CC[C@H]4C[C@H](OC(=O)c5cccnc5)CC[C@]34C)C1CCC2=O (some centres not stated)
 : -4.0%	-4.6%	/	/
O=P1(Oc2ccccc2)C[C@@H](O)[C@@H](O)[C@H](COCc2ccccc2)O1 (some centres not stated)
 : -0.4%	8.1%	5.7	-1.7%
CCOC(=O)C1=C(C)OC(N)=C(C#N)C12C(=O)N(C)c1ccccc12 (configuration not stated)
 : 1.5%	-0.5%	6.5	3.1%
CCCn1ncc(CN2CCCC(C(=O)c3cccc(OC)c3)C2)c1C (configuration not stated)
 : -1.2%	19.0%	8.8	-0.2%
N#CCCn1cc(C(=O)NCc2ccccc2)c(-c2ccc3c(c2)OCCO3)n1
 : -0.2%	4.1%	3.8	-7.3%
CC(=NCCN1CCCCC1)c1c(O)[nH]c(=O)[nH]c1=O
 : -0.6%	-12.0%	1.0	-2.9%
Cc1cccc(CN(C)C)c1OC(=O)N(C)C
 : -2.9%	-0.1%	-0.5	-8.9%
C/C=C/CC1(CC)C(=O)NC(=S)NC1=O
 : -0.2%	38.5%	0.3	1.5%
COc1ccc(CN2CCN(c3ccccc3F)CC2)c(OC)c1
 : /	/	0.2	-4.1%
COc1cccc(CN2CCN(C(=O)COc3ccc4ccccc4c3)CC2)c1
 : -0.4%	4.3%	-3.9	-9.7%
COC(=O)C1=C(c2ccc(OC)c(OC)c2)C[C@@H]2CC[C@H]1N2C(=O)N1CCOCC1
 : -0.6%	-2.0%	/	/
O=C(O)CCC(=O)N1N=C(c2c(-c3ccccc3)c3cc(Cl)ccc3[nH]c2=O)CC1c1ccco1 (configuration not stated)
 : -2.2%	9.9%	-1.3	-9.9%
CN1CCc2cc(O)cc3c2[C@H]1Cc1ccc(O)c(O)c1-3
 : -1.3%	-10.6%	/	/
CCN(CC)S(=O)(=O)c1cccc(N=Nc2c(O)n(CC)c(=S)n(CC)c2=O)c1
 : 0.5%	-2.6%	-17.9	-3.5%
Cc1ccc2c(c1)C1C[N+](C)(CC(=O)c3ccc(Cl)cc3Cl)CCC1N2C(=O)c1ccc(F)cc1 (configuration not stated)
 : 4.2%	-5.7%	/	/
C[C@]12CC(=O)CC1CCC1C2CC[C@@]2(C)C1CC[C@@H]2O (some centres not stated)
 : -3.5%	3.2%	/	-1.4%
CC(C)n1c(O)c(C2c3cc(Cl)ccc3Oc3[nH]c(=O)n(C(C)C)c(=O)c32)c(=O)[nH]c1=O (configuration not stated)
 : -5.9%	20.1%	1.9	?

Compound profiles (already shown). Order of screens: Rango-impB inh, Rango dissoc inh, GLA inh pH 4.5, miR-21 FLuc
Profile of `C/C=C/CC1(CC)C(=O)NC(=S)NC1=O` : -0.2%, 38.5%, 0.3, 1.5%
Profile of `C/C=C/CC#N` : 2.3%, -8.5%, /, /

The listing continues:
Second line of a record: Rango-impB inh	Rango dissoc inh	GLA inh pH 4.5	miR-21 FLuc
COC(=O)C1=C(c2cccc(OCc3ccccc3)c2)C[C@@H]2CC[C@H]1N2C(=O)NCc1cc(C)oc1C(F)(F)F
 : -0.6%	-0.4%	/	/
O=S(=O)(c1ccc(F)cc1)N1CCCC1c1cccnc1 (configuration not stated)
 : 0.0%	10.8%	3.0	-0.1%
O=C(c1ccc2c3c(cccc13)CC2)C1CCCN(CC2CC2)C1 (configuration not stated)
 : -0.4%	-0.6%	0.2	16.8%
Cc1ccc(S(=O)(=O)N(C)N=O)cc1
 : -0.6%	3.2%	/	/
CC(=NCc1ccco1)c1c(O)n(-c2ccccc2C)c(=O)[nH]c1=O
 : 4.2%	0.4%	2.7	3.0%
CNS(=O)(=O)c1ccc(-c2ccc(C=C3C(=O)NC(=O)NC3=O)o2)cc1
 : 0.0%	5.4%	/	1.2%
c1ccc(C2NCc3ccccc3-n3cccc32)cc1 (configuration not stated)
 : 0.3%	-6.2%	1.2	-5.8%
Nc1c2c(nc3sc4c(c13)CCCC4)CCCC2
 : -2.0%	11.7%	1.8	-1.9%
COc1ccccc1CCNC1CCC(C(C)(C)C)CC1 (configuration not stated)
 : 6.7%	-4.4%	6.6	2.3%
CCCCC(=O)N/N=C/c1c(O)n(CC)c(=S)n(CC)c1=O
 : ?	?	-3.0	18.6%
Cc1cc(N2C(=O)C3CCCN3C2c2ccc(Cl)c(Cl)c2)no1 (configuration not stated)
 : 0.1%	3.2%	17.4	-5.3%
CC(=O)Nc1ccccc1C(=O)OCC(=O)c1ccc2c(c1)OCCO2
 : 4.8%	-7.8%	0.9	-11.2%
CC/C(=N\NC(=S)Nc1ccccc1)c1c(O)[nH]c(=O)[nH]c1=O
 : 7.6%	-15.6%	3.5	-54.1%
O=[N+]([O-])/C=C1/NCCN1Cc1ccc(Cl)nc1
 : 1.3%	-3.5%	-0.3	1.8%
FC(F)(F)c1ccc(CNCCc2c[nH]c3ccccc23)cc1
 : -3.9%	14.0%	/	-1.5%
N#CC[N+]1(CCCNP2(=O)C=C(c3ccccc3)OC(c3ccccc3)=C2)CCOCC1
 : -3.1%	2.1%	-4.2	-1.0%
COC(=O)C1=C(c2c(C)noc2C)C[C@@H]2CC[C@H]1N2C(=O)NCc1ccc(F)cc1
 : -2.5%	2.5%	/	/
O=C(O)c1cc[c]([Hg][Cl])cc1
 : -0.8%	-1.4%	1.3	/
O=Cc1cn(Cc2ccc(F)cc2Cl)c2ccccc12
 : -0.9%	22.8%	-8.7	10.3%
c1ccc2c(CNC3CCCCCC3)c[nH]c2c1
 : -4.6%	-22.6%	-7.3	13.2%
O=C(/C=C/c1ccc(Br)cc1)NC(=S)N1C[C@H]2C[C@H](C1)c1cccc(=O)n1C2
 : 4.0%	-5.9%	/	-2.7%
Cc1cc(C=O)c(C)n1C(C)C
 : 0.9%	-5.9%	3.0[21.1 µM]	-0.4%
COc1c(C)cc(C(=O)C2CCCN(Cc3cnc(C)s3)C2)cc1C (configuration not stated)
 : 3.7%	7.9%	-2.8	0.0%
C=CCn1c(O)c(C(CC)=NC(C)c2ccccc2)c(=O)[nH]c1=O (configuration not stated)
 : 3.5%	13.5%	-7.0	6.6%
Cc1nc2ccc(P(=O)(O)O)cc2s1
 : /	/	6.5	2.8%
C=CCc1ccc(OC)cc1
 : -2.6%	-9.2%	10.2	/
C/C(=C/C=C/[C@@H](C)C(=O)O)[C@H]1CN[C@H](C(=O)O)[C@H]1CC(=O)O
 : ?	9.6%	4.3	0.2%
CNP1(NC)=NC(C(F)(F)F)=NC(C(F)(F)F)=N1
 : -2.8%	11.0%	-4.0	-1.4%
CCN1C[C@@]2(COC)C3[C@@H](OC)[C@H]4[C@@H]1[C@@]3(C1C[C@H]3[C@H](O)C1[C@]4(O)C[C@H]3OC)[C@@H](OC)C[C@H]2O (some centres not stated)
 : 0.0%	2.7%	/	/
Cn1c2ccccc2c2c(C(=O)N3CCC4(CC3)OCCO4)cn(C3CCCC3)c(=O)c21
 : 2.3%	-17.4%	5.5	11.4%
C=C(C)[C@@]12OC3(c4ccccc4)O[C@@H]1C1[C@@H]4O[C@]4(CO)[C@@H](O)[C@]4(O)C(=O)C(C)=C[C@H]4[C@@]1(O3)[C@H](C)[C@H]2OC(=O)/C=C/C=C/c1ccccc1 (some centres not stated)
 : -2.3%	-5.1%	/	/
COc1ccc(NC2=NCC(C)S2)cc1 (configuration not stated)
 : 2.6%	-5.6%	/	-18.5%
O=C1NC(=O)C(=Cc2ccsc2)C(=O)N1
 : 0.2%	9.8%	1.1	-1.6%
CCCCCSc1cc(O)c(C(CNC)C(C)C)cc1OC (configuration not stated)
 : -11.4%	9.3%	-6.8	5.7%
O=C(COc1ccc(Cl)cc1)NC1CN2CCC1CC2 (configuration not stated)
 : 0.4%	-1.6%	-5.1	-0.9%
COc1cc2c(c(OC)c1OC)-c1ccc(O)cc1C(NC(C)=O)CC2 (configuration not stated)
 : 0.9%	2.9%	/	/
CCOP(=S)(OCC)SCOC(=O)NCC(=O)OC
 : 0.7%	-8.6%	-0.8	-4.6%
Nc1c(C(=O)OCc2ccccc2)c2nc3ccccc3nc2n1Cc1cccs1
 : -6.7%	-11.6%	13.2	12.7%
O=C(NN=Cc1ccc(N(CCCl)CCCl)cc1)c1cccc([N+](=O)[O-])c1
 : 0.5%	17.2%	/	/
CCCCSP1(=S)NCCCN1
 : -3.2%	23.2%	8.1	2.8%
CC(C(=O)c1ccc(Cl)cc1Cl)n1cncn1 (configuration not stated)
 : -0.2%	3.3%	/	-6.8%

Structures listed so far containing an NH in an aromatic ring:
Second line of a record: Rango-impB inh	Rango dissoc inh	GLA inh pH 4.5	miR-21 FLuc
C/C(=N\N1CCCCC1)c1c(O)[nH]c(=O)[nH]c1=O
 : -0.2%	-3.8%	-3.3	-42.4%
Cc1[nH]n(-c2ccccc2)c(=O)c1C(C[N+](=O)[O-])c1ccccc1Cl (configuration not stated)
 : -4.5%	22.4%	3.2	1.1%
CC(=NCCN1CCCCC1)c1c(O)[nH]c(=O)[nH]c1=O
 : -0.6%	-12.0%	1.0	-2.9%
O=C(O)CCC(=O)N1N=C(c2c(-c3ccccc3)c3cc(Cl)ccc3[nH]c2=O)CC1c1ccco1 (configuration not stated)
 : -2.2%	9.9%	-1.3	-9.9%
CC(C)n1c(O)c(C2c3cc(Cl)ccc3Oc3[nH]c(=O)n(C(C)C)c(=O)c32)c(=O)[nH]c1=O (configuration not stated)
 : -5.9%	20.1%	1.9	?
CC(=NCc1ccco1)c1c(O)n(-c2ccccc2C)c(=O)[nH]c1=O
 : 4.2%	0.4%	2.7	3.0%
CC/C(=N\NC(=S)Nc1ccccc1)c1c(O)[nH]c(=O)[nH]c1=O
 : 7.6%	-15.6%	3.5	-54.1%
FC(F)(F)c1ccc(CNCCc2c[nH]c3ccccc23)cc1
 : -3.9%	14.0%	/	-1.5%
c1ccc2c(CNC3CCCCCC3)c[nH]c2c1
 : -4.6%	-22.6%	-7.3	13.2%
C=CCn1c(O)c(C(CC)=NC(C)c2ccccc2)c(=O)[nH]c1=O (configuration not stated)
 : 3.5%	13.5%	-7.0	6.6%
